KCNQ2 enhance – potentiators of rat KCNQ2 potassium channel | Potassium voltage-gated channel subfamily KQT member 2 (Rattus norvegicus), O88943 | CHO-K1 KCNQ2, FluxOR thallium flux fluorescence; stronger effect = higher value | B-score at 10 µM | actives 0.54% (n = 310,000);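 active = fluorescence ratio B-score at least 3 SD of library B-scores, with initial fluorescence B-score within 3 SD, cut at about 5.3 in these data; same plate scores as AID 2156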;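 also: B-score of peak minus minimum over baseline fluorescence ratio after K+ and Tl+ stimulus; positive B-score means potentiation of KCNQ2 with more thallium influx and brighter signal; only the inactives scoring about 0 or higher are listed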
Target sequence (O88943 whole entry, looked up): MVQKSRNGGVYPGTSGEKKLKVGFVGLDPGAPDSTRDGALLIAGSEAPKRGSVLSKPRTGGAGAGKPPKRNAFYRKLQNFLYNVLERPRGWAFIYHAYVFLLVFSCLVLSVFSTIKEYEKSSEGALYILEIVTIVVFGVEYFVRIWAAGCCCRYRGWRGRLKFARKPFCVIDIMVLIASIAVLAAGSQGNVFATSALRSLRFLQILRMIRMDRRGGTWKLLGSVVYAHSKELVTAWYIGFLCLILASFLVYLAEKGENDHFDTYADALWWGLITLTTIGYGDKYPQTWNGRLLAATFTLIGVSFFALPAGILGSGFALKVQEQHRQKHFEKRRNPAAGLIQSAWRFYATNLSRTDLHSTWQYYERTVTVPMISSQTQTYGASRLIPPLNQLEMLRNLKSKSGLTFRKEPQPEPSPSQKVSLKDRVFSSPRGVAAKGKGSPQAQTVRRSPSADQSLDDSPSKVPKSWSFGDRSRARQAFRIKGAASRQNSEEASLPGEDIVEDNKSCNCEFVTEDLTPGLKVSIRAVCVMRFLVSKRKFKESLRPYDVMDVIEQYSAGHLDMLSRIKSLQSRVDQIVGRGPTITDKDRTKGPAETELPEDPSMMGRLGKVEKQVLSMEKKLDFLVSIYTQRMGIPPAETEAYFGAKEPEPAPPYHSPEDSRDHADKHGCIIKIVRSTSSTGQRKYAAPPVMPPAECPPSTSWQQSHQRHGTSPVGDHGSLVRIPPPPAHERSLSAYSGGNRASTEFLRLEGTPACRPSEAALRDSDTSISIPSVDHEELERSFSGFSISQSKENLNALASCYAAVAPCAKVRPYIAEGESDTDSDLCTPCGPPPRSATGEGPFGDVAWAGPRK
KCNQ2 enhance baseline – second read-out of KCNQ2 enhance, no call of its own (marks repeat the call); B-score; compound at 10 µM; measured here: initial fluorescence intensity artifact check;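 brightness before thallium and not channel activity; 0 = typical well and far values either way flag optical interference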
An asterisk follows results filed as active.

Values run as follows: KCNQ2 enhance, KCNQ2 enhance baseline
> COc1ccc(C(=O)COC(=O)CCNS(=O)(=O)c2ccccc2)c(OC)c1
 : 0.19, -0.41
> COc1ccccc1N1CCN(c2ncnc3nc[nH]c23)CC1
 : 0.88, -1.75
> O=C(COC(=O)c1cccnc1Cl)NCc1cccs1
 : 1.1, 0.88
> CC(Nc1oc(-c2ccco2)nc1C#N)c1ccccc1 (stereo not drawn)
 : 0.23, 0.65
> NC(=O)C1(N2CCCCC2)CCN(CC(=O)Nc2cc(Cl)ccc2Cl)CC1
 : 0.97, -0.3
> COc1ccc(/C=C/C(=O)NCc2ccccn2)cc1
 : 0.57, -0.76
> COc1ccc(NC(=O)CSc2nnc(-c3ccccn3)n2Cc2ccco2)cc1OC
 : 0.39, 2.73
> CCN1CCc2nc(NC(=O)Cc3ccc4c(c3)OCCO4)sc2C1
 : 0.94, 1.12
> O=C(NC(Cc1ccccc1)C(=O)O)c1ccc(S(=O)(=O)N2CCCC2)cc1 (stereo not drawn)
 : 0.09, 1.36
> CCOC(=O)c1c(O)c(Cl)c(C)[nH]c1=O
 : 0.57, 1.09
> Cc1cc(C)n(CC(O)COc2cccc(OCC(O)Cn3nc(C)cc3C)c2)n1 (stereo not drawn)
 : 1.26, 0.39
> CCCCn1c(SCC(=O)NCCOC)nc2ccc(N3CCOCC3)cc2c1=O
 : 1.76, -0.02
> O=C(NNc1cccc(Cl)n1)Nc1cccc(C(F)(F)F)c1
 : 0.05, -0.34
> CN1CCC(N(C)C(=O)COc2ccc(S(=O)(=O)N3CCOCC3)cc2)CC1
 : 0.05, 0.95
> COCCCNS(=O)(=O)c1ccc2c(c1)OCCO2
 : 1.13, -1.21
> COC(=O)c1c(NC(=O)c2ccco2)sc2c1CCN(C(C)C)C2
 : 2.06, 0.09
> O=c1c2c3c(sc2nc2n1CCCCC2)CCC3
 : 0.32, 1.91
> Cc1nc2ccc(S(=O)(=O)Nc3ccccc3C)cc2s1
 : 0.97, -0.95
> COc1cc(SC)ccc1C(=O)OCC(=O)N1CCN(C(C)=O)CC1
 : 0.18, -1.03
> COC(=O)c1ccc(NC(=S)N2CCC(C(N)=O)CC2)cc1
 : 0.54, -0.11
> COc1ccccc1NC(=O)Nc1ccc2c(c1)nnn2C
 : 0.86, 1.45
> O=C(Oc1cccc(N2C(=O)CCC2=O)c1)C1CC(=O)N(c2ccc(F)cc2)C1 (stereo not drawn)
 : 0.03, -1.78
> Cc1ccc(Oc2ncccc2COC(=O)Nc2ccccc2C)cc1
 : 0.07, 0.17
> COc1cccc(N2C(=O)CC(N3CCN(C(=O)c4ccco4)CC3)C2=O)c1 (stereo not drawn)
 : 1.5, -0.94
> Cc1nc2nc(C)c(NS(=O)(=O)c3ccc(C4CCCCC4)cc3)c(=O)n2[nH]1
 : 0.76, -0.59
> O=C(CN1CCN(c2ncccn2)CC1)NCc1ccccc1
 : 1.76, -0.66
> CC(C)(C)c1ccccc1NC(=O)c1ccc2c(c1)SC1=NS(=O)(=O)CCN12
 : 0.49, 2.05
> O=C(CSc1nccn1-c1ccccc1)c1ccc(Br)cc1
 : 0.84, -0.05
> CCc1ccccc1N(CC(=O)N1CCc2ccccc2C1)S(C)(=O)=O
 : 0.01, 1.8
> C=CCc1cc(C=O)cc(OC)c1OCc1ccc(Cl)cc1
 : 1.7, -0.22
> CNC[C@H](CC1CCCCC1)NC[C@H](Cc1ccccc1)NCCC12CC3CC(CC(C3)C1)C2
 : 1.3, 13.7
> C/C(N)=C(/C#N)C(=O)CSc1nn(-c2ccc(Cl)cc2)c(=S)s1
 : 1.77, -1.46
> CCOc1ncccc1C(=O)NCc1ccccc1
 : 0.01, 0.79
> C=CCNC(=S)NNC(=O)c1csc(CC)c1
 : 2.06, -1.09
> N/C(=N\OC(=O)COc1ccc(Cl)cc1Cl)c1ccccn1
 : 0.11, 2.25
> NC(=O)CSc1nccn1Cc1ccc2c(c1)OCO2
 : 0.04, -0.04
> CCn1c(/C=C/N(C(C)=O)c2ccccc2)[n+](CC)c2ccc(Cl)cc21
 : 1.33, -0.6
> Cc1ccc(C(c2sc3ncnn3c2O)N2CC(C)CC(C)C2)cc1 (stereo not drawn)
 : 0.01, 1.36
> Cn1nnnc1SCc1cc(=O)n2ccsc2n1
 : 0.6, 0.79
> CC(C)(C)NC(=O)Cn1nnc(-c2ccccc2Cl)n1
 : 0.09, 1.07
> Cc1ccc(NC(=O)CN(C)C(=O)c2sc3cc(Cl)ccc3c2Cl)cc1
 : 0.55, 0.54
> C=CCNC(=O)c1onc(CS(=O)(=O)c2cc(C)cc(C)c2)c1C(=O)NCC=C
 : 0.41, -1.32
> Cc1[nH]nc(SCC(=O)NC2CCCC2)c1[N+](=O)[O-]
 : 1.44, -0.08
> COc1ccc(S(=O)(=O)N(C)CC(=O)O)c2ccccc12
 : 0.36, -0.17
> N#Cc1ccccc1-n1c(N)c(C(=O)N2CCCC2)sc1=S
 : 0.23, 0.85
> NC(=O)NC(=O)COC(=O)CCCc1c[nH]c2ccccc12
 : 1.38, -0.37
> CCOC(=O)c1[nH]c(C(=O)O)c(CCN(CC)CC)c1C
 : 0.11, -0.34
> CCN1C(=O)C(O)(C2COC(C)(C)CC2=O)c2cc(Br)ccc21 (stereo not drawn)
 : 0.45, 0.58
> Cc1cc(C)c2oc(C(=O)Nc3ccc(S(=O)(=O)N4CCCC(C)C4)cc3)cc(=O)c2c1 (stereo not drawn)
 : 0.22, 1.71
> Cc1ccc(NC(=O)c2ccc(CSc3nnc(C)s3)cc2)c(C)c1
 : 0.71, 0.76
> Cc1cn(C2C=CC(CO)O2)c(=O)[nH]c1=O (stereo not drawn)
 : 0.54, -0.43
> COc1ccc(NC(=O)Nc2ccccc2OC)cc1
 : 1.64, -0.96
> O=C(NCCO)c1nc2ccccc2s1
 : 0.92, 0.61
> O=C(Nc1ccc(OCc2ccccc2)cc1)c1cccs1
 : 0.07, -0.75
> COc1ccc(OC)c(C2C(C(C)=O)=C(O)C(=O)N2c2ccc(O)cc2)c1 (stereo not drawn)
 : 0.36, 0.73
> Clc1ccc(Cn2ncc3c(N4CCCCC4)ncnc32)cc1
 : 2.72, -1.32
> COc1ccc(/C=C/C(=O)NCC(=O)N/N=C/c2ccc(OC)cc2)cc1
 : 0.57, 0.04
> CCOC(=O)NC(=O)CSc1nnnn1-c1ccc(Cl)cc1
 : 1.99, 0.44
> CC(C)N(C(=O)CN(C#N)c1nc(N(C)C)nc(N(C)C)n1)c1ccccc1
 : 0.02, 0.49
> Cc1nnc(SCC(=O)NCc2ccco2)n1-c1ccccc1
 : 0.03, -0.79

One compound at a time, from the list above. Order of values: KCNQ2 enhance	KCNQ2 enhance baseline
Profile of CCN1C(=O)C(O)(C2COC(C)(C)CC2=O)c2cc(Br)ccc21 (stereo not drawn) → 0.45	0.58
Profile of COc1ccc(/C=C/C(=O)NCC(=O)N/N=C/c2ccc(OC)cc2)cc1 → 0.57	0.04
Profile of Cc1cn(C2C=CC(CO)O2)c(=O)[nH]c1=O (stereo not drawn) → 0.54	-0.43
Profile of CC(C)(C)NC(=O)Cn1nnc(-c2ccccc2Cl)n1 → 0.09	1.07
Profile of CCn1c(/C=C/N(C(C)=O)c2ccccc2)[n+](CC)c2ccc(Cl)cc21 → 1.33	-0.6

More results.
| Molecule | KCNQ2 enhance | KCNQ2 enhance baseline |
| --- | --- | --- |
| CCc1oc(C(=O)O)cc1CN(CC)CC | 0.02 | -0.2 |
| O=C(NCCc1ccccc1)c1ccc2c(c1)S(=O)(=O)c1ccccc1C2=O | 0.94 | 1.64 |
| CN(C)c1ccc(/C=C(\C#N)C(=O)c2ccccc2)cc1 | 1.3 | 1.06 |
| COc1ccc2cc(C(=O)C3CCCN(C(=O)CCc4cnn(C)c4)C3)ccc2c1 (stereo not drawn) | 0.17 | -0.37 |
| O=C(CNC1CCCCCC1)Nc1ccccc1N1CCOCC1 | 2.68 | 0 |
| O=C(O)c1cc(/C=N\O)ccc1OCc1ccccc1 | 1.01 | -0.95 |
| N#CCOc1coc(CN2CCN(c3cccc(Cl)c3)CC2)cc1=O | 0.17 | -0.51 |
| COc1ccc(-c2cc(C(=O)Nc3cc(OC)cc(C(=O)Nc4cccc(C(F)(F)F)c4)c3)[nH]n2)cc1 | 0.65 | -0.02 |
| c1ccc2nc(-c3nc4ccccc4[nH]3)ccc2c1 | 0.06 | -1.73 |
| Cc1ccc(S(=O)(=O)NCc2ccc(/C=C(/C#N)C(=O)NCc3ccccc3)o2)cc1 | 0.99 | 0.17 |
| [N-]=[N+]=NCCN1CCN(CCc2ccccc2)CCC1=O | 0.21 | -0.4 |
| CC(C)CCCN1C(Nc2ccccc2)=NC[C@@H]1C | 0.04 | 0.48 |
| Cc1cccc(N2C(=O)C3C4CC(=O)C(c5ccccc54)C3C2=O)c1C (stereo not drawn) | 0.54 | 3.59 |
| CCN(CC)CCCN1CC(=O)N2[C@@H](Cc3c([nH]c4ccccc34)C2(C)C)C1=O | 0.01 | 1.88 |
| COC(=O)[C@H](C)NC(=O)Nc1ccc(C)c(C)c1 | 0.12 | 0.43 |
| Cc1ccnc2nc(C(=O)OCC(=O)N(CC(C)C)CC(C)C)nn12 | 0.02 | 1.49 |
| O=C(Cc1ccc(Cl)cc1)Nc1ccc(Br)cn1 | 1.7 | -1.76 |
| CCCn1c(SCC(=O)NNC(=O)c2ccccc2)nnc1-c1cccnc1 | 0.37 | 0.41 |
| CCCN1C(=O)c2cc(C(=O)Nc3cccc(C(C)=O)c3)ccc2C1Nc1cccc(C(C)=O)c1 (stereo not drawn) | 0.03 | -0.67 |
| C=C(C)c1cccc(C(C)(C)NC(=O)Nc2ncccn2)c1 | 0.66 | 0.83 |
| O=C(COCc1nc2ccccc2c(=O)[nH]1)NCC1CCCCC1 | 1.77 | -0.72 |
| Cc1cc(OCC(=O)NCc2cccnc2)c2c(C)c(Cc3ccccc3)c(=O)oc2c1 | 0.01 | 0.33 |
| COc1ccc(Cl)cc1NC(=O)CCCN1C(=O)CCC1=O | 0.81 | -1.86 |
| CCOC(=O)c1ccc(NC(=S)N(CCCN2CCCC2)Cc2cccs2)cc1 | 1.17 | 1.52 |
| COc1ccc(S(=O)(=O)N2CCN(CC(=O)NC3CCCC3)CC2)cc1 | 0.21 | 0.24 |
| CCOC(=O)Cc1nnc(Nc2ccc(C)cc2C)c2ccccc12 | 1.21 | -1.33 |
| O=C(OCC(=O)N1CCCCC1)c1c[nH]c(=O)[nH]c1=O | 0.68 | 0.67 |
| CCOC(=O)C1(Cc2ccccc2)CCCN(C(=O)c2cnn(CC)c2)C1 (stereo not drawn) | 0.01 | 1.22 |
| COc1ccc(CCN2CCCC(CN(C)Cc3cc(OC)ccc3OC)C2)cc1 (stereo not drawn) | 1.5 | -1.37 |
| COc1ccc(C(C)C)cc1S(=O)(=O)Nc1ccc(Cl)cn1 | 0.81 | -2.05 |
| COc1cccc(CNC(=O)CCNS(=O)(=O)c2ccc3c(c2)oc(=O)n3C)c1 | 1.35 | 0.11 |
| O=C(O)C(=O)/C(=C\c1ccccc1)c1ccc2ccccc2n1 | 1.65 | 0.26 |
| O=C(Nc1cccc(Cl)c1)c1ccccc1NC(=O)C1CCCCC1C(=O)O (stereo not drawn) | 0.16 | 0 |
| COc1ccc(OCCC(=O)OCC(=O)NCc2ccco2)cc1 | 0.73 | -2.58 |
| CCN(CC)S(=O)(=O)c1ccc(NS(=O)(=O)c2ccc(OC)c([N+](=O)[O-])c2)cc1 | 0.03 | -0.67 |
| COc1ccc(Nc2nc(-c3ccccc3)c(C(=O)Nc3cccnc3)s2)cc1 | 0.01 | -0.29 |
| O=S1(=O)N=C(Nc2ccc(N3CCOCC3)cc2)c2ccccc21 | 0.11 | -1.84 |
| CCN(CC)C(=S)NC(=O)c1ccc(Cl)cc1Cl | 4.17 | 1.77 |
| COCCNc1nnc(SCC(=O)N(C)c2c(N)n(Cc3ccccc3)c(=O)[nH]c2=O)s1 | 0.41 | 0.74 |
| Cc1ccccc1Cn1nc(C)c(NC(=O)/C=C/c2cnn(C)c2C)c1C | 0.09 | -0.21 |
| CCC(Oc1ccccc1)C(=O)NC1CCSC1=O (stereo not drawn) | 0.05 | -0.33 |
| COc1cccc(NC(=O)CCS(=O)(=O)c2ccc(Br)cc2)c1 | 1.46 | -0.09 |
| CCOCCCNC(=O)C1(O)c2ccccc2NC(=O)N1c1ccc(Cl)cc1 (stereo not drawn) | 1.69 | 0.86 |
| COc1ccc(/C=C(/NC(=O)c2ccccc2)C(=O)NCc2ccncc2)cc1 | 0.58 | -0.01 |
| Cc1c(C(N)=O)c(N)c(C(=O)c2ccccc2)n1-c1ccccc1 | 0.17 | 0.73 |
| CN(c1ccc(C(=O)Nc2ccc(S(=O)(=O)N3CCCC3)cc2)cc1)S(C)(=O)=O | 1.07 | -1.64 |
| Cn1c(CN2CCCC(C(=O)c3ccc4c(c3)OCO4)C2)nc2ccccc21 (stereo not drawn) | 0.62 | 0.86 |
| CC(=O)c1ccc(N(C(=O)CNC(=O)c2ccco2)C(C(=O)NC2CCCC2)c2ccco2)cc1 (stereo not drawn) | 1.24 | -0.63 |
| Cc1nc(NC(=O)c2cc(-n3cnnc3)ccc2Cl)ccc1Br | 0.64 | -2.02 |
| c1cc2c(cc1Nc1nc(-c3ccc4c(c3)OCO4)cs1)OCCO2 | 0.28 | 0.1 |
| CCN(C(=O)CSc1nnc(COc2ccccc2F)n1N)C1CCS(=O)(=O)C1 (stereo not drawn) | 0.68 | -1.52 |

A different layout for three compounds above.
Cc1c(C(N)=O)c(N)c(C(=O)c2ccccc2)n1-c1ccccc1
  KCNQ2 enhance: 0.17
  KCNQ2 enhance baseline: 0.73

CN(c1ccc(C(=O)Nc2ccc(S(=O)(=O)N3CCCC3)cc2)cc1)S(C)(=O)=O
  KCNQ2 enhance: 1.07
  KCNQ2 enhance baseline: -1.64

Cn1c(CN2CCCC(C(=O)c3ccc4c(c3)OCO4)C2)nc2ccccc21 (stereo not drawn)
  KCNQ2 enhance: 0.62
  KCNQ2 enhance baseline: 0.86

Screening data: PubChem, Johns Hopkins Ion Channel Center

This is a subset; rates above refer to the full screens.
